D2 PAM: potentiates the human D2 dopamine receptor allosterically. DiscoveRx D2 beta-arrestin cells, luminescence, 90 min; 100% = 57 uM dopamine signal. potentiation, % (concentration not given with the values). hit rate 0.23% among 360,000. AID 624464; active = potentiation of 50% or more; inconclusive = 30% to 50%; inactive = 30% or less;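 further: compound concentration not given in the record; tested on top of an EC20 dose of dopamine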
Target sequence (P14416 whole entry, looked up): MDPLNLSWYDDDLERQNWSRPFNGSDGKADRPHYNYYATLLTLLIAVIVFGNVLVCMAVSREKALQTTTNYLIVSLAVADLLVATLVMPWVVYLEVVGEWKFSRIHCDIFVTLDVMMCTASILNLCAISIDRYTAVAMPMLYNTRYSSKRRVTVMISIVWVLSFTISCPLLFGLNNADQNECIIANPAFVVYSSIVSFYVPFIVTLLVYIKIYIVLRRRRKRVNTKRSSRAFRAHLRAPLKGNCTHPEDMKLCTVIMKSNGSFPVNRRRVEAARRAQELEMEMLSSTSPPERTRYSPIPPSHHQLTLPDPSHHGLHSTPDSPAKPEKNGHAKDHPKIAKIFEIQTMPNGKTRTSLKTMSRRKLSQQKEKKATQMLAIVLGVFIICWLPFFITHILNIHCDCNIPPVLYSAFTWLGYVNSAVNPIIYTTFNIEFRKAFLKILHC
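D2 cells co-treated with compound plus 50 nM dopamine (EC20) for 90 min at 37 deg C to detect potentiation. Beta-arrestin recruitment was read as enzyme-fragment luminescence after 1 h at ambient temperature. Full response was set by 57 uM dopamine.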
gsp agonist: agonists of gsp mutant (McCune-Albright syndrome); gsp mutant cells, cAMP HTRF, 30 min; control for the full effect not named in the record; Potency, µM (series often up to 76.9 µM), for inactives: top-dose activation (cAMP increase), hits mostly activators; hit rate 0.13% among 340,000; AID 624287; active = well fitted activation curve with a large enough effect; inconclusive = small, poorly fitted or top-dose-only effect, or another doubt; inactive = no such curve, though single readings can be large or run the other way; cell line not stated here;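 further: phosphodiesterase inhibitor Ro 20-1724 added with compounds to block cAMP breakdown; potency means the concentration at half of the fitted maximal effect; nearly all actives have a fitted effect of over 60% in size; about a fifth of the inactives were tested at one dose only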
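Cells in DMEM/10% FBS with G418 were pretreated with compounds in DMSO plus […] (300 uM stock) for 30 min at 37C. cAMP was measured by HTRF (cAMP-d2 plus anti-cAMP antibody-K) after 30 min at room temperature.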
CtBP-E1A blk: inhibitors of CtBP/E1A interaction; hit rate 0.49% among 340,000; AlphaScreen GST-E1A/His-CtBP binding, 1536-well; stronger effect = lower value; control for the full effect not named in the record; activity change, % (no concentration beside the values); AID 651724; in the data active means activity change below about -65%; inconclusive means about -30% to -65%; inactive means above about -30%; further: on the % scale 0 is the no-effect control and ±100 the full control effect; compound concentration not given in the record
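In 5 uL wells, 23 nL compound meets equimolar GST-E1A and His-CtBP (5X stock 125 nM each) for 2 h, 37 °C. Beads (5X, 50 ug/mL) then 1 h, 37 °C, dark.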
gsp antag: antagonists of gsp mutant (McCune-Albright syndrome) | Potency, µM (series often up to 76.9 µM), for inactives: top-dose activity change, negative = inhibition, actives largely listed as inhibitors | AID 624288 | gsp-mutant cells, cAMP HTRF, 30 min; control for the full effect not named in the record | hit rate 0.4% among 340,000; active = falling curve of any shape with a large fitted effect; inconclusive = falling curve, mostly with a smaller effect; inactive = flat or rising curve; cell line not stated here;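 further: intracellular cAMP measured with PDE inhibitor Ro 20-1724 present during compound exposure; potency means the concentration at half of the fitted maximal effect; on the % scale 0 is the no-effect control and ±100 the full control effect; nearly all actives have a fitted effect of over 65% in size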
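HTRF cAMP read-out (cAMP-d2 plus anti-cAMP antibody-K in lysis buffer, 30 min RT). Before lysis, cells are exposed to compounds with […] for 30 min at 37C in DPBS containing Ca/Mg, BSA and Tween 20.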
Six1-Eya2 blk: inhibitors of human Six1/Eya2 interaction; activity change, % (test concentration not listed); Q15475+O00167; hit rate 0.56% among 360,000; AlphaScreen GST-Six1/His-Eya2 binding, biochemical; stronger effect = lower value; control for the full effect not named in the record; in the data active = activity change below about -65%; inconclusive = about -30% to -65%; inactive = above about -30%; further: on the % scale 0 is the no-effect control and ±100 the full control effect; compound concentration not given in the record
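Homogeneous AlphaScreen proximity assay pairing GST-Six1 with His-tagged Eya2 (added as 5X mix: 250 nM and 500 nM) in 50 mM Tris pH 8.0, 300 mM NaCl, 1 mM TCEP. Glutathione donor and nickel acceptor beads; 1 h, 37 °C, dark.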
D2 agonist: agonists of human D2 dopamine receptor (beta-arrestin); hit rate 0.084% among 360,000; activation, % (no concentration beside the values); DiscoveRx PathHunter D2 beta-arrestin, luminescence, 90 min; 100% = 57 uM dopamine signal; in the data active = activation above about 40%; inconclusive = about 15% to 40%; inactive = below about 15%; further: compound concentration not given in the record; the text of the record calls up to 30% inactive
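DiscoveRx PathHunter D2 beta-arrestin cells (2,100/well) attached overnight, then compound-stimulated 90 min at 37 C in HBSS/10 mM HEPES/0.1% Tween-20 buffer; beta-galactosidase complementation read by luminescence after 1 h at ambient temperature. Dopamine 57 uM final (EC100) as control.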
* = called active by the depositor; ? = inconclusive; . = no result given; [ ] = another dose, or the depositor's remark. No enrichment for hits; any-hit rate near 1.4%.

gsp antag	CtBP-E1A blk	gsp agonist	D2 PAM	Six1-Eya2 blk	Compound	D2 agonist
9%	-8	-21%	5	3	COCCNC(=O)c1ccc2ccccc2n1	-2.7
0%	23	6%[15.4 µM]	-1	5	O=C(CSc1ncn[nH]1)c1cc2ccccc2o1	-3.6
5%	-3	-2%[15.4 µM]	-23	8	Cc1cn2c(=O)c(C(=O)N3CCN(c4ccccc4)CC3)cnc2s1	-2.5
6%	-9	1%[15.4 µM]	4	8	O=C(O)COc1ccc(NC(=O)c2ccc3c(c2)C(=O)N(C2CCCCC2)C3=O)cc1	1.6
5%	-83*	-19%	-14	-93*	COc1cc([N+](=O)[O-])cc(/C=N/NC(=O)c2cc(C)nc3ccccc23)c1O	-5.9
1%	11	-21%	10	9	Cc1c(NC(=S)Nc2ccccc2)c(=O)n(-c2ccccc2)n1C	-2.1
1%	-25	-15%	1	?	O=C(Nc1ccc2nc(-c3ccco3)[nH]c2c1)c1ccco1	-4.1
6%	60	?	-3	52	CCCCC1CCC(c2nc(-c3ccccn3)no2)CC1 (stereo not drawn)	-4.5
2%	9	-22%	-6	0	CN(C(=O)c1ccnn1C)C1CCCN(Cc2ccccc2F)C1 (stereo not drawn)	-2.3
10%	-3	1%	-13	3	COCCNS(=O)(=O)c1ccc2c(c1)n(C)c(=O)n2C	-2.9
1%	-9	0%	12	3	COCc1cc(C)nc2sc3c(=O)oc(C)nc3c12	-5.1
11%	10	17%	-4	3	CCCCN1C(=O)C(=O)NC[C@@H]1C(C)CC (stereo partly drawn)	-0.8
3%	0	5%	-2	3	C=C(C)COc1ccc2c(c1)CCC1C2CCC2(C)C(=O)C(=NO)CC12 (stereo not drawn)	-4.6
.	1	-3%[15.4 µM]	-6	-4	CN1CCC(NC(=S)NC2CC2)CC1	0.2
2%	-3	22%	-3	3	CC(C)n1c(SCC(=O)NC2CCCCC2)nnc1-c1ccco1	-1.2
10%	-7	29%	-13	0	CN(C)CCNC(=O)c1ccc(COc2ccc(Cl)cc2Cl)cc1	2.0
-6%	.	-225%[inhibitor]	-12	16	CCC(C)NC(=O)COC(=O)c1csc2c1CCCC2 (stereo not drawn)	-1.6
10%	13	-4%[15.4 µM]	8	17	FC(F)(F)c1ccccc1CNCc1ccncc1	2.2
2%	-16	3%	-5	-26	C[C@H](CO)N1C[C@H](C)[C@H](CN(C)S(=O)(=O)c2cccs2)Oc2ccc(NC(=O)Nc3ccc4c(c3)OCO4)cc2CC1=O	2.1
8%	-4	?	12	6	O=C(/C=C/c1ccc(S(=O)(=O)N2CCOCC2)cc1)NC(=S)Nc1ccc(N2CCOCC2)cc1	-6.5
3%	0	-22%	2	3	O=C1CSC(c2ccc([N+](=O)[O-])cc2)N1Cc1ccccc1 (stereo not drawn)	-3.1
0%	8	-18%	-2	2	COc1cccc(-c2nnn(CCC(=O)O)n2)c1	2.7
4%	14	-6%[15.4 µM]	-14	9	O=C(CCN1C(=O)C2CCCCC2C1=O)N1CCN(S(=O)(=O)c2cccc(F)c2)CC1 (stereo not drawn)	-2.6
7%	2	22%	5	1	Cc1cc(NC(=O)CSc2nc(=O)n(CCN(C)C)c3c2CCCC3)no1	-3.0
1%	5	13%[15.4 µM]	-9	2	CCN(CC)CC(=O)Nc1c(C#N)cnn1-c1ccccc1	0.7
14%	1	6%	-35	1	O=C(NC1CCCC1)C1CCCN(S(=O)(=O)c2ccc(-n3cnnn3)cc2)C1 (stereo not drawn)	2.6
3%	7	-3%	-9	9	Cc1ccc(N2C(=O)C(Cc3ccc(O)cc3)NC2=S)cc1C (stereo not drawn)	-3.4
-3%	.	23%	-3	-5	Cc1ccnc(SC2CC(=O)N(c3ccc(C(C)C)cc3)C2=O)n1 (stereo not drawn)	3.9
1%	-3	0%	-4	0	N#Cc1ccccc1OCC(=O)Nc1ccc(S(=O)(=O)N2CCOCC2)cc1	-3.4
16%	4	-3%	-12	-1	COC(=O)c1nn(-c2ccccc2)c(Cl)c1/C=N/OC(=O)c1ccc(Cl)c(Cl)c1	-3.2
-14%	-30	-51%[inhibitor]	-12	-26	CN(CC(=O)Nc1ccc(Cl)cc1)c1ccc(S(=O)(=O)N2CCCCC2)cc1[N+](=O)[O-]	0.0
19%	0	2%	4	13	CC(=O)Oc1ccc2oc3c(c2c1)C(=O)CCC3	-0.7
4%	.	4%	-13	12	Clc1ccc(N=C2SCCS2)cc1	-3.2
10%	-4	3%[15.4 µM]	-4	1	CCOC(=O)CNC(=O)Cc1ccc(OC)cc1	-1.5
-3%	3	?	-10	4	S=c1[nH]nc(-c2cccnc2)o1	-0.1
3%	-2	4%[15.4 µM]	-5	-3	O=C(COC(=O)C1CCN(c2ccc(C(F)(F)F)cn2)CC1)Nc1ccc(Cl)cc1	-1.2
32µM*	-12	8%[15.4 µM]	-4	-15	CC(C)(C)c1cc(-c2csc(Nc3ccccc3)[n+]2Cc2ccc(C(=O)O)cc2)cc(C(C)(C)C)c1O	1.9
3%	6	-43%[inhibitor]	-3	-3	O=C(c1ccco1)N1CCN=C1SCc1ccc(F)cc1	0.1
-2%	.	-19%	-38	?	COc1ccc(OC)c2c(C)c(C)[nH]c12	-8.8
9%	7	.	-18	5	CC(C)C[C@H]1CN=C(Nc2ccccc2)N1CCC1CCCCC1	0.0
4%	-1	-24%	9	9	COc1ccc(NC(=O)C2CC(=O)n3cnnc3S2)cc1 (stereo not drawn)	0.6
-19%	-12	.	-11	-5	C=CC[C@@H](CC(=O)N(CCO)Cc1ccccc1)C(=O)N[C@H](COC(=O)[C@@H](CC=C)Cc1ccc(F)cc1)Cc1ccccc1	0.4
11%	4	-6%	3	8	COc1cc(OC)c(C(=O)OCC(=O)N2CCOCC2)cc1OC	0.0
5%	-2	?	-4	-4	CCOc1ccc(NC(=O)CN(C)c2ccc(S(=O)(=O)N3CCOCC3)cn2)cc1OCC	-2.4
3%	-25	-10%[15.4 µM]	-12	-4	O=C(Nc1ccccc1N1CCCC1)C1CCCO1 (stereo not drawn)	-2.3
-14%	-3	0%[15.4 µM]	11	?	O=C(COC(=O)c1ccccc1O)Nc1ccc(S(=O)(=O)N2CCCCC2)cc1	-1.6
-13%	-13	-9%	-5	6	COCCCNS(=O)(=O)c1ccc2c(c1)OCCO2	-1.9
-13%	0	-12%	-6	0	Cc1ccccc1NS(=O)(=O)c1cc(C(=O)NCc2ccncc2)ccc1Cl	1.4
-13%	-20	.	17	15	CC(=O)OC[C@H]1O[C@@H](n2ncc(=O)[nH]c2=O)[C@H](OC(C)=O)[C@@H]1OC(C)=O	-3.1
6%	-19	-9%[15.4 µM]	7	16	CCOC(=O)C1=C(C)OC(N)=C(C#N)C1c1ccc(C)s1 (stereo not drawn)	-4.2
4%	-13	.	.	4	CCN(C[C@H]1N[C@@](CC)(C(=O)OC)[C@H]2C(=O)N(Cc3ccccc3)C(=O)[C@@H]12)S(=O)(=O)c1ccc(-c2ccccc2)cc1	-3.3
-2%	26	-8%	23	10	COc1ccc(-c2noc(COc3ccc(C)c(C)c3)n2)cc1OC	6.6
16%	9	?	-2	0	Cc1nn(CCCC(=O)NCc2ccccc2Cl)c(=O)c2nccn12	-2.2
8%	5	-17%[15.4 µM]	-10	0	FC(F)(F)c1ccc(Cl)c(NC2=NCCCCC2)c1	-5.6
2%	6	20%[15.4 µM]	0	17	CS(=O)(=O)N1CCN(C(=O)CCc2ccccc2)CC1	-1.3
3%	12	7%[15.4 µM]	-5	-1	COc1cccc(C(=O)N2C(C(=O)O)CSC2c2ccccc2Cl)c1 (stereo not drawn)	-1.3
-14%	-4	8%	2	-12	COc1cc(/C=N/NC(=O)c2cc(C34CC5CC(CC(C5)C3)C4)[nH]n2)ccc1O	0.1
6%	0	19%	1	10	CCOC(=O)c1cc(C#N)c(N2CCNCC2)nc1C(F)(F)F	-1.1
6%	14	10%	-20	3	COC(=O)[C@@H](NC(=O)NC1CCN(Cc2ccccc2)CC1)C(C)C	-2.3
-8%	.	-14%	-4	-1	O=C(COC(=O)CCN1C(=O)C2CC=CCC2C1=O)Nc1ccc([N+](=O)[O-])cc1 (stereo not drawn)	0.6

An excerpt from above in order of number of heavy atoms, largest number first.
gsp antag	CtBP-E1A blk	gsp agonist	D2 PAM	Six1-Eya2 blk	Compound	D2 agonist
4%	-13	.	.	4	CCN(C[C@H]1N[C@@](CC)(C(=O)OC)[C@H]2C(=O)N(Cc3ccccc3)C(=O)[C@@H]12)S(=O)(=O)c1ccc(-c2ccccc2)cc1	-3.3
-13%	0	-12%	-6	0	Cc1ccccc1NS(=O)(=O)c1cc(C(=O)NCc2ccncc2)ccc1Cl	1.4
-2%	26	-8%	23	10	COc1ccc(-c2noc(COc3ccc(C)c(C)c3)n2)cc1OC	6.6
3%	6	-43%[inhibitor]	-3	-3	O=C(c1ccco1)N1CCN=C1SCc1ccc(F)cc1	0.1

Next section
gsp antag	CtBP-E1A blk	gsp agonist	D2 PAM	Six1-Eya2 blk	Compound	D2 agonist
?	10	16%[15.4 µM]	-2	17	CCOC(=O)COc1c(/C=N\OC)cc(Cl)cc1OC	-2.9
13%	-1	-2%[15.4 µM]	4	1	COc1ccc(C(CC(=O)Nc2nccs2)C(C)C)cc1 (stereo not drawn)	7.7
-24%	23	29%	0	19	Cc1ccc(NC(=O)c2cc(S(=O)(=O)N3CCOCC3)cn2C)cc1Cl	-1.4
2%	0	2%	-4	2	COc1ccc(N(C(=O)c2ccco2)C(C(=O)NC2CCCC2)c2ccncc2)cc1 (stereo not drawn)	0.2
.	4	-21%	1	0	Cc1cccc(C(=O)C(O)(c2ccccc2)C2CCCCC2=O)c1 (stereo not drawn)	0.4
-12%	?	-30%[inhibitor]	-13	-28	O=C(O)CCC(=O)Nc1nc2nc(-c3ccccc3)cc(-c3ccccc3)n2n1	-2.5
-9%	-6	11%	-1	-1	CC1=C(C(=O)OCCc2ccccc2)C(c2ccsc2)NC(=O)N1C (stereo not drawn)	-2.7
10%	2	-15%	-6	7	O=C(c1ccccc1Cl)N1CCC(N2CCC(C(=O)N3CCCC3)CC2)CC1	3.2
9%	?	-8%	5	?	COc1cc2c(cc1OC)-c1cc(Nc3cccc(C)c3)nc(=O)n1CC2	5.5
0%	4	-3%	-11	-2	CC(=O)Oc1oc(-c2ccccc2)nc1/C=N/c1ccccn1	1.7
?	-9	?	3	-5	O=C(CSc1ncnc2nc[nH]c12)N1CCN(c2ccc(Cl)cc2)CC1	2.9
.	4	.	-1	6	Cc1ccccc1S(=O)(=O)NC(=O)C1(C)CCN1C(=O)CCc1ccc(Cl)cc1Cl (stereo not drawn)	6.5
11%	-3	-5%[15.4 µM]	-8	-4	COc1ccc(C(=O)N2CCCC(c3nc(-c4ccc(C)o4)no3)C2)cc1OC (stereo not drawn)	0.4

Screening results deposited in PubChem BioAssay by National Center for Advancing Translational Sciences (NCATS).
